# Screens: PubChem BioAssay, several laboratories
# GALR2 agonist = agonists of human galanin receptor 2 (GALR2). O43603. GALR2-expressing cells, agonist activation read-out. activation, %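 (tested at 5 µM)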. 0.48% of 140,000 active;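 active = above mean plus 3 SD of all compounds, about 5% in these data, not always enough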;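 also: 0% = vehicle buffer wells and 100% = reference agonist at full effect; tested in CHO reporter cells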
# RGS16-Gao = modulates binding between human RGS16 and Galphao. O15492+P09471. binding response (% of control), % at 10 µM. 0.38% of 220,000 active. bead-based flow cytometry RGS16-Galphao binding, fluorescence; actives lie on both sides;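 active = below 25% or above 175%, edge rows of some plates excepted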;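 also: Galphao activated by GDP with aluminum fluoride before binding; 100% = wells without compound and 0% = beads without RGS; some results beyond the cut were filed as inactive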
# HSV augment = increases HSV replication in cells. HSV replication augmentation in cells, fold increase. maximum fold increase. 0.005% of 220,000 active;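 active = peak rise of 1.5-fold or more in the series; tested in PC3 cells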;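 also: first round at 10 µM; read as green reporter fluorescence; hits show the peak of a series up to 25 µM; 1 = signal of infected wells without compound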
# Insulin prom inh = TRM-6 insulin promoter activity inhibition. TRM-6 cells (human fetal islet line), insulin promoter-eGFP reporter, imaging; reporter expression induced with tamoxifen. inhibition, % at 2 µM. 0.9% of 130,000 active;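 active = inhibition above the mean plus 3 SD, with well images judged a real hit on visual review, cut at about 60% in these data, passing the limit was not always enough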
# PKD1 inh = inhibitors of human PKD1 kinase; Q15139; PKD1 kinase fluorescence polarization assay; inhibition, %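 (about 10 µM by stock and volumes)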; 0.056% of 200,000 active;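 active = inhibition of 50% or more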;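 also: controls were vehicle for no effect and a reference inhibitor for full effect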
# Target sequence (Q15139 whole entry, looked up): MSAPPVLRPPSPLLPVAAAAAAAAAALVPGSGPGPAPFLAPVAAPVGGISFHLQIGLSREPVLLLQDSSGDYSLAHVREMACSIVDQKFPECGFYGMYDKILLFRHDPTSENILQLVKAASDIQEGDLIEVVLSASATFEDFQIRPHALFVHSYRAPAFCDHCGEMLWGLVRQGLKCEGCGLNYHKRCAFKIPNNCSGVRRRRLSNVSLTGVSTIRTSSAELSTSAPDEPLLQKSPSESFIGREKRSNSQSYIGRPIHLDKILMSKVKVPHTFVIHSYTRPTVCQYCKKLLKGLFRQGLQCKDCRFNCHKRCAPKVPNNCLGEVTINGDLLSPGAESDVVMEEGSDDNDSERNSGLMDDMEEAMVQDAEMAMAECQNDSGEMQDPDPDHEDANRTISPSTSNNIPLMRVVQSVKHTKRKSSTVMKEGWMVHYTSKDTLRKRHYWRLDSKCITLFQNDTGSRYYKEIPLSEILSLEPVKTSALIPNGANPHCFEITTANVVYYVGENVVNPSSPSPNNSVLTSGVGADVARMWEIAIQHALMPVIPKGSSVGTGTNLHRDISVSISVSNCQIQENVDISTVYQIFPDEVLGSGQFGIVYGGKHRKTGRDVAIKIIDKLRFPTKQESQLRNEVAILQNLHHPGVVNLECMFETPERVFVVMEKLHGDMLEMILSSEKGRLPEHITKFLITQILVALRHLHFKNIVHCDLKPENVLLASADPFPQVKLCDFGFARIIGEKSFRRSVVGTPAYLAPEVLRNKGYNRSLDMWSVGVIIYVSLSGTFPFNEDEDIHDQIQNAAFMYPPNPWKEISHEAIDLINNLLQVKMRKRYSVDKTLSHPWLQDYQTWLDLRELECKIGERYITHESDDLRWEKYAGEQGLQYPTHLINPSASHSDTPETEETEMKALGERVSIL
# Insulin prom inh cell count = further read-out of Insulin prom inh, marked with its call; normalized cell count, %; measured here: cell count, toxicity; reference of the scale not given here;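 cells exposed to compound for 48 h; stained nuclei by imaging scaled within each plate; lower means fewer cells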
# HSV augment primary fold = recorded beside HSV augment, whose call it bears; fold increase; compound at 10 µM; measured here: primary screen fold increase 10 uM; tested in PC3 cells;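 GFP signal in the first replicate; 1 = infected wells without compound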
# * hit, by the source's call; i = inactive; nt = no result given; [ ] = dose if it differs, or a comment.
SMILES,GALR2 agonist,RGS16-Gao,HSV augment,HSV augment primary fold,Insulin prom inh,Insulin prom inh cell count,PKD1 inh
CC(=O)c1ccc2noc(-c3ccc(Cl)cc3)c2c1,nt,103,i,1,45,84,3
CCOC(=O)C1Cc2ccccc2CN1 (stereo unspecified),-1.5,100,i,0.95,nt,nt,-7
Fc1ccc(-c2cc(C(F)(F)F)nc(NCc3cccs3)n2)cc1,2.1,106,i,1,-66,136,-5
COc1ccc(NC(=O)COC(=O)/C=C/C(=O)OCC(=O)Nc2ccc(OC)c(Cl)c2)cc1Cl,-0.6,114,i,0.82,10,122,-8
COc1ccc(CCNC(=O)C(=O)N2CCCCC2)cc1OC,-1.2,100,i,1.1,-219,88,-9
Cc1cccc(N2CCCn3c2nc2c3c(=O)n(CCN3CCOCC3)c(=O)n2C)c1,-1.4,102,i,0.97,nt,nt,-6
CCC(=O)c1ccc(OCCN2CCOCC2)cc1,-1.5,100,i,0.85,38,95,-3
CCn1c(N)c(C(=O)NCc2ccco2)sc1=S,-2.4,75,i,1,27,84,-13
CCC(C)N1CC(O)=C(c2nc3ccccc3[nH]2)C1=N (stereo unspecified),-0.3,97,i,0.95,29,54,23
O=C(COC(=O)CCC1CCCC1)Nc1ccc(Cl)cc1F,1.0,100,i,1,nt,nt,-7
COc1ccc(/C=N/NC(=O)c2cc(-c3cccnc3)nc3ccccc23)c(OC)c1,nt,101,i,0.91,27,107,-5
O=[N+]([O-])c1cc2c(c(CSc3nnc(Nc4ccccc4)s3)c1)OCOC2,-0.4,99,i,0.84,-5,103,7
COc1ccc(NC(=O)O/N=C/c2ccncc2)cc1,nt,103,i,0.94,nt,nt,4
Nc1ccc(Oc2cccc(Oc3ccc(N)cc3)c2)cc1,nt,91,i,0.97,-24,112,1
COCc1[nH][nH]c(=O)c1C=NCC(=O)OC,nt,104,i,0.92,nt,nt,5
O=C(CN1CCN(Cc2ccccc2)CC1)NC(=O)NC1CCCCC1,-0.8,97,i,1.2,29,64,-11
CCOC(=O)c1sc(=S)n(C)c1C,-0.9,101,i,0.81,11,127,-3
CCCNS(=O)(=O)c1cccc2cccnc12,nt,101,i,0.97,nt,nt,-2
NC(=O)/C(=C/c1ccco1)NC(=O)/C=C/c1ccccc1,-1.9,106,i,1.1,-48,84,-6
CCOc1ccc(-c2noc(-c3cccnc3)n2)cc1OC,-0.3,111,nt,nt,nt,nt,2
COc1cc(NCCC(=O)c2cccs2)c(OC)cc1Cl,nt,100,i,0.92,nt,nt,-3
O=C(C1CCN(S(=O)(=O)c2cnc[nH]2)CC1)N1CCc2ccccc2C1,-0.8,107,i,1.2,nt,nt,-10
CCSc1nc2ccccc2c(=O)n1Cc1ccc(F)cc1,nt,101,i,1.1,nt,nt,-2
COc1ccc(C(=O)NCC(=O)N/N=C(\C)c2ccco2)cc1OC,nt,109,i,1.1,nt,nt,nt
O=C(/C=C/c1ccco1)N1CCC(Cc2ccccc2)CC1,nt,94,i,1.2,nt,nt,-3
CS(=O)(=O)Nc1cccc(-c2cn3ccccc3n2)c1,nt,102,i,0.94,-50,69,-8
CC(=O)NCc1ccc(C(=O)O)cc1,nt,98,i,0.9,nt,nt,nt
CCN(CCO)c1ccc(NC(=S)Nc2cccc(S(=O)(=O)N(C)C)c2)cc1,nt,71,i,0.98,24,45,2
Cc1ccc(C(=O)NCCCn2ccnc2)o1,-0.7,100,i,1,12,89,5
Cc1cccc(N2C(=O)CC(SC(=Nc3ccccc3)Nc3ccccc3)C2=O)c1 (stereo unspecified),-1.1,102,i,1.1,3,61,-13
COc1ccccc1-c1nnc(SCC(=O)O)n1-c1ccccc1,nt,101,i,1.1,39,86,-8
Cc1ccc(C(=O)N[C@H](C(=O)OCc2cc(=O)oc3cc(C)ccc23)C(C)C)cc1,-1.0,99,i,0.79,nt,nt,-9
CCOC(=O)CSc1nc2c(c(-c3ccc(C)o3)c1C#N)CCCC2,1.4,53,i,0.98,36,72,1
CCOCC(=O)Nc1cc(C)on1,nt,99,i,1,-5,101,12
Cc1cc(C)c(S(=O)(=O)c2ccccc2)c(OC(=O)c2c(F)cccc2Cl)n1,-3.9,108,i,0.93,11,112,0
O=C(CCCOc1ccccc1)NC1CCCc2ccccc21 (stereo unspecified),0.5,99,i,0.96,-17,80,-6
CC(=O)Nc1c(Cl)cc([N+](=O)[O-])c2ccccc12,-0.5,109,i,0.99,17,108,5
CN(C)c1ccnc(Nc2ccc(O)cc2)c1C#N,nt,55,nt,nt,36,86,2
CN(C)c1ccc(-c2nn3c(-c4ccc(Cl)cc4Cl)nnc3s2)cc1,6.0*,101,nt,nt,-37,106,-10
Cc1cc(C(=O)NNC(=S)NCC(C)C)no1,0.0,99,i,1.1,-27,103,7
NC1=NN=C(N2N=C(c3ccco3)CC2(O)C(F)(F)F)n2ncnc2C1 (stereo unspecified),nt,101,i,1.1,nt,nt,-4
Cc1onc(C(=O)N2CCC(C(N)=O)CC2)c1-c1ccccc1Cl,-1.6,80,nt,nt,42,84,-7
CSc1nc2ccccc2c(=O)n1N,0.0,104,i,1.1,-16,160,4
OC1CCCN(Cc2ccccc2)C1 (stereo unspecified),-1.3,82,i,0.95,7,106,-6
O=C(CNCCN1CCOCC1)Nc1ccccc1Sc1ccccc1,-1.9,227*[activator],i,1.1,22,69,-5
CNNC(=S)Nc1ccc(Cl)cc1,nt,99,i,0.97,nt,nt,nt
CC1CCCCC1NC(=O)C1CCN(C(=O)NC2CCCCC2)CC1 (stereo unspecified),-2.3,49,i,0.85,-51,52,1
Cc1[nH]c(=O)[nH]c(=O)c1CSCC(=O)OCC(=O)c1ccc(Br)cc1,nt,99,i,0.96,-42,117,-9
COC(=O)c1sc(-c2ccc(Cl)cc2)cc1NC(=O)COCC(=O)O,nt,103,i,1,nt,nt,nt
Cc1cc(C)nc(SCC(=O)N/N=C\c2sccc2C)n1,0.2,97,i,0.95,nt,nt,7
# The list goes on.
SMILES,GALR2 agonist,RGS16-Gao,HSV augment,HSV augment primary fold,Insulin prom inh,Insulin prom inh cell count,PKD1 inh
CCCCN(C)S(=O)(=O)c1cc(Br)cc2c1N(C(=O)C1CC1)CC2,-1.0,100,i,1.1,nt,nt,4
Cc1cc(C)cc(Oc2ccc(-c3nnc(-c4ccccc4)o3)cc2[N+](=O)[O-])c1,-0.4,104,i,1.1,nt,nt,-8
CC(/C=C/c1ccccc1)=N\NC(=O)c1ccncc1,-2.0,103,i,0.86,-7,123,-2
Fc1cccc(-n2ncc(-c3nnnn3-c3ccccc3)c2C(F)(F)F)c1,-0.5,73,i,0.9,-309,33,-9
COc1ccc(C(C(=O)NCC2CCCO2)N(C(=O)CNC(=O)c2cccs2)c2ccc(C(C)=O)cc2)cc1OC (stereo unspecified),nt,100,i,1,-50,116,-6
c1ccc(-c2csc3ncnc(NCCCN4CCOCC4)c23)cc1,-0.9,84,i,0.97,5,119,2
Cc1ccnc(NS(=O)(=O)c2ccc(NC(=O)C3C4C=CC(C4)C3C(=O)O)cc2)n1 (stereo unspecified),nt,102,i,1.2,nt,nt,-6
CCC(C)C1=CC(=Nc2c(C)n(C)n(-c3ccccc3)c2=O)C=C(C(C)CC)C1=O (stereo unspecified),nt,113,i,1,28,137,2
O=C1CNC(=O)N1CC(=O)N1CCCc2ccccc21,-1.7,103,i,0.9,53,123,-4
CC(=O)c1cccc(CN2CCN(CCc3ccccc3)C(CCO)C2)c1 (stereo unspecified),nt,98,i,1,nt,nt,2

# No new results follow: twelve of the compounds above.
SMILES,GALR2 agonist,RGS16-Gao,HSV augment,HSV augment primary fold,Insulin prom inh,Insulin prom inh cell count,PKD1 inh
O=C(CNCCN1CCOCC1)Nc1ccccc1Sc1ccccc1,-1.9,227*[activator],i,1.1,22,69,-5
CNNC(=S)Nc1ccc(Cl)cc1,nt,99,i,0.97,nt,nt,nt
CC1CCCCC1NC(=O)C1CCN(C(=O)NC2CCCCC2)CC1 (stereo unspecified),-2.3,49,i,0.85,-51,52,1
Cc1[nH]c(=O)[nH]c(=O)c1CSCC(=O)OCC(=O)c1ccc(Br)cc1,nt,99,i,0.96,-42,117,-9
COC(=O)c1sc(-c2ccc(Cl)cc2)cc1NC(=O)COCC(=O)O,nt,103,i,1,nt,nt,nt
Cc1cc(C)nc(SCC(=O)N/N=C\c2sccc2C)n1,0.2,97,i,0.95,nt,nt,7
CCCCN(C)S(=O)(=O)c1cc(Br)cc2c1N(C(=O)C1CC1)CC2,-1.0,100,i,1.1,nt,nt,4
Cc1cc(C)cc(Oc2ccc(-c3nnc(-c4ccccc4)o3)cc2[N+](=O)[O-])c1,-0.4,104,i,1.1,nt,nt,-8
CC(/C=C/c1ccccc1)=N\NC(=O)c1ccncc1,-2.0,103,i,0.86,-7,123,-2
Fc1cccc(-n2ncc(-c3nnnn3-c3ccccc3)c2C(F)(F)F)c1,-0.5,73,i,0.9,-309,33,-9
COc1ccc(C(C(=O)NCC2CCCO2)N(C(=O)CNC(=O)c2cccs2)c2ccc(C(C)=O)cc2)cc1OC (stereo unspecified),nt,100,i,1,-50,116,-6
c1ccc(-c2csc3ncnc(NCCCN4CCOCC4)c23)cc1,-0.9,84,i,0.97,5,119,2

# Remaining list, next part.
SMILES,GALR2 agonist,RGS16-Gao,HSV augment,HSV augment primary fold,Insulin prom inh,Insulin prom inh cell count,PKD1 inh
O=C(CNC(=O)c1ccc(S(=O)(=O)N2CCCC2)cc1)N/N=C/c1ccc(Cl)cc1Cl,-1.2,113,i,0.75,nt,nt,0
COCCCNC(=S)NC1CCCCC1,-2.0,100,i,0.93,38,187,-5
CN(C)CCSc1nc(-c2ccccc2)nc2c1COC(C)(C)C2,-0.9,107,i,0.85,10,41,5
NC(=S)Nc1cccc2cn[nH]c12,nt,104,i,1,nt,nt,-1
CCOC(=O)/C(C#N)=C(\O)c1ccc(NC(=O)c2ccc([N+](=O)[O-])cc2)cc1,nt,132,i,0.95,nt,nt,nt
CC(C)C(=O)Nc1nnc(SCC(=O)NC2CC2)s1,-0.2,99,i,0.98,nt,nt,4
CC1=C(C(=O)Nc2ccccn2)C(c2ccc(N(C)C)cc2)n2ncnc2N1 (stereo unspecified),-1.1,89,i,0.98,nt,nt,-12
Cc1ccc(C(=O)c2c(NC(=O)c3ccccc3C)sc(C)c2C)cc1,-4.6,100,i,0.88,-8,73,-12
CN(C)CCNC(=O)CNC(=S)N(CCCN1CCOCC1)Cc1cccs1,nt,115,i,0.93,-33,98,-2
CC(=O)N1CCC(N(CCN2CCOCC2)C(=S)Nc2ccc(C)c(C)c2)CC1,nt,102,i,0.98,-18,161,-2
CC1=C(C)CC(C(=O)c2ccc(C)cc2)C(C(=O)O)C1 (stereo unspecified),-0.3,73,i,0.84,37,138,-4
CC(C)c1ccc(C(C(=O)NC2CCCC2)N(C(=O)CNC(=O)c2ccco2)c2cccnc2)cc1 (stereo unspecified),-0.2,100,i,0.84,-72,101,-8
COC(=O)c1ccc(-c2nc3cc(N)ccc3o2)cc1,0.2,102,i,0.73,-39,66,-16
CCn1cc[n+](C)c1P(c1ccccc1)c1ccccc1,0.6,104,i,0.94,50,106,-9
Cc1ccc(Nc2nnc(SCc3cc(=O)n4cc(C)ccc4n3)s2)cc1,-1.5,31,i,0.96,28,90,-12
CCOc1ccc(-n2c(N)c(-c3nc4ccccc4n3C)c3nc4ccccc4nc32)cc1,-0.7,58,i,1,nt,nt,-7
CC(C)(C)c1ccc(-c2n[nH]c(=S)n2CC2CCCO2)cc1 (stereo unspecified),nt,102,i,1,nt,nt,-7
CCOCCOC(NC(=O)c1ccccc1)(C(F)(F)F)C(F)(F)F,-0.4,105,i,1.1,nt,nt,4
O=S(=O)(c1ccc(OCC(O)CN2CCCC2)cc1)N1CCOCC1 (stereo unspecified),-4.0,101,i,0.8,0,99,3
Cc1nc(C(N)=O)nc2ccccc12,nt,94,i,0.91,nt,nt,nt
O=C(OCc1ccco1)c1ccc(S(=O)(=O)N2CCCCC2)cc1,-2.2,97,i,0.95,-353,58,0
O=C(OC(C(=O)NCc1ccc2c(c1)OCO2)c1ccc(Cl)cc1)c1ccco1 (stereo unspecified),-1.8,104,i,0.79,-14,95,-13
CN(C)c1ccc(N=Nc2ccccc2C(=O)OCC(=O)NC2CCCC2)cc1,-0.4,104,i,0.97,nt,nt,3
O=C(CCC(=O)OCc1cccc(C(=O)Oc2ccccc2)c1)Nc1cccc2ccccc12,-2.2,78,i,1.2,3,139,-8
